# Source: PubChem (National Center for Advancing Translational Sciences (NCATS))
# D2 ag: agonists of human D2 dopamine receptor (beta-arrestin). AID 624465. activation, % (test concentration not listed). DiscoveRx PathHunter D2 beta-arrestin, luminescence, 90 min; 100% = 57 uM dopamine signal. hit rate 0.084% among 360,000. P14416; in the data active = activation above about 40%; inconclusive = about 15% to 40%; inactive = below about 15%; also: compound concentration not given in the record; the text of the record calls up to 30% inactive
#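 DiscoveRx PathHunter D2 beta-arrestin cells (2,100/well) attached overnight, then compound-stimulated 90 min at 37 C in HBSS/10 mM HEPES/0.1% Tween-20 buffer; beta-galactosidase complementation read by luminescence after 1 h at ambient temperature. Dopamine 57 uM final (EC100) as control.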
# PINK1 modulator: PINK1 expression modulation; PINK1 immunofluorescence, high-content cytometry, 24 h; Potency, µM (top dose mostly 76.6 µM), inactives show at the highest dose activation (PINK1 increase), actives largely listed as activators; hit rate 0.2% among 410,000; AID 624263; active = well fitted activation curve with a large enough effect; inconclusive = small, poorly fitted or top-dose-only effect; inactive = flat fitted curve, though single readings scatter; cell line not stated here;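 also: potency is read from the fitted curve at half-maximal effect; % of control where 0% means no effect; nearly all actives have a fitted effect of over 65% in size; a mitochondrial uncoupler was the plate control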
#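 Fluorescence from anti-PINK1 antibody, together with nuclear and cell stains, was scanned on a laser-scanning cytometer. Before staining, stable-line cells were incubated 24 hours with compounds at 5 concentrations; primary antibody 12 h at 10 degrees C.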
# TRPV1 PAM: human TRPV1 potentiation | AID 540277 | Q8NER1 | hit rate 0.02% among 320,000 | potentiation, % at 8.33 µM | TRPV1-expressing cells, Fluo-8 calcium influx, capsaicin EC20 potentiation; host cell line not named in the record; control for the full effect not named in the record; active means potentiation above 80%; inconclusive means 30% to 80%; inactive means below 30%; also: 0% is about no effect
# Target sequence (Q8NER1 whole entry, looked up): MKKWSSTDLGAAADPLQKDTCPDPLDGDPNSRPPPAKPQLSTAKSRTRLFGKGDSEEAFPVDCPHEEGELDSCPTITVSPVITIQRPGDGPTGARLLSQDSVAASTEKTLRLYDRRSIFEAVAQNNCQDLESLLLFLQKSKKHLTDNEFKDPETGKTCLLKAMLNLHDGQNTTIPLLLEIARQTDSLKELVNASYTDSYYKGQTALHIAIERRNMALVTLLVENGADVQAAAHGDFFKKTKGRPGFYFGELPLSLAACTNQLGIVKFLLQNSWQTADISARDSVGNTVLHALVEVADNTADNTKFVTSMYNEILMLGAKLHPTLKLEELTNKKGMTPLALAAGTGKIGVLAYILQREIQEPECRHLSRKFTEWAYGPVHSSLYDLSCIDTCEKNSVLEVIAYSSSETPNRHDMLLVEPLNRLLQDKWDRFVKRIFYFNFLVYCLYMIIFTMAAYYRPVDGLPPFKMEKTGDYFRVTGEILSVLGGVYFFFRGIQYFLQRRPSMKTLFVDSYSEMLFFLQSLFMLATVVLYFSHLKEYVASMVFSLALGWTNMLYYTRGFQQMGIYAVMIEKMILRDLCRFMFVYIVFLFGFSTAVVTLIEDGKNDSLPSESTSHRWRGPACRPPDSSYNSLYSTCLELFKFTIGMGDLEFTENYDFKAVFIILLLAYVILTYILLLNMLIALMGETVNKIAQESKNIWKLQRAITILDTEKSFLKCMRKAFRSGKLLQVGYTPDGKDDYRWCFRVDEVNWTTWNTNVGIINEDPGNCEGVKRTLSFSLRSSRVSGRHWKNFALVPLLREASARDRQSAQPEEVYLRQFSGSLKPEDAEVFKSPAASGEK
#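 TRPV1-expressing cells were cultured overnight at 35.5C and loaded with Fluo-8 calcium dye for 40 to 90 min at room temperature. After a 10 s baseline, compound was added and calcium influx was read kinetically for 3 min (ex 480/em 520 nm).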
# CtBP-E1A inh: blocks the CtBP interaction with E1A; AlphaScreen GST-E1A/His-CtBP binding, 1536-well; active compounds read low; control for the full effect not named in the record; activity change, % (test concentration not listed); hit rate 0.49% among 340,000; AID 651724; in the data active means activity change below about -65%; inconclusive means about -30% to -65%; inactive means above about -30%; also: % is scaled to controls: 0 for no effect and ±100 for the full control effect
#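 In 5 uL wells, 23 nL compound meets equimolar GST-E1A and His-CtBP (5X stock 125 nM each) for 2 h, 37 °C. Beads (5X, 50 ug/mL) then 1 h, 37 °C, dark.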
# D2 PAM: positive allosteric modulators of human D2 dopamine receptor; hit rate 0.23% among 360,000; potentiation, % (concentration not given with the values); P14416; AID 624464; DiscoveRx D2 beta-arrestin cells, luminescence, 90 min; 100% = 57 uM dopamine signal; active = potentiation of 50% or more; inconclusive = 30% to 50%; inactive = 30% or less;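 also: compound concentration not given in the record; tested on top of an EC20 dose of dopamine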
#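 D2 cells co-treated with compound plus 50 nM dopamine (EC20) for 90 min at 37 deg C to detect potentiation. Beta-arrestin recruitment was read as enzyme-fragment luminescence after 1 h at ambient temperature. Full response was set by 57 uM dopamine.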
# Six1-Eya2 inh: inhibitors of human Six1/Eya2 interaction. Q15475+O00167. AlphaScreen GST-Six1/His-Eya2 binding, biochemical; active compounds read low; control for the full effect not named in the record. activity change, % (test concentration not listed). hit rate 0.56% among 360,000. AID 651725; in the data active = activity change below about -65%; inconclusive = about -30% to -65%; inactive = above about -30%; also: % is scaled to controls: 0 for no effect and ±100 for the full control effect
#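 Homogeneous AlphaScreen proximity assay pairing GST-Six1 with His-tagged Eya2 (added as 5X mix: 250 nM and 500 nM) in 50 mM Tris pH 8.0, 300 mM NaCl, 1 mM TCEP. Glutathione donor and nickel acceptor beads; 1 h, 37 °C, dark.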
# Sfp inh: Sfp phosphopantetheinyl transferase inhibition; Q9F4F7; Biochemical Sfp PPTase activity, qHTS; Potency, µM, without a hit: max response, negative = inhibition, actives largely listed as inhibitors; hit rate 3.5% among 310,000; AID 1490; active = well fitted inhibition curve with a large enough effect; inconclusive = small, poorly fitted or top-dose-only effect, or another doubt; inactive = no such curve, though single readings can be large or run the other way;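 also: the enzyme is Sfp with the accession as filed and its product quenches rhodamine fluorescence; potency is read from the fitted curve at half-maximal effect; 0% = enzyme reaction without inhibitor and -100% = no enzyme wells; top concentration of the series not given in the record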
#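 Sfp 15 nM + cpd, 15 min RT; start w/ rhodamine-CoA 5 uM, BHQ-2-YbbR 12.5 uM (final); 50 mM Hepes pH 7.6, 10 mM MgCl2, 0.01% NP-40, 0.01% BSA; read 525/598 nm at 0 and 30 min.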
# Starred values were filed as active, the others as inactive; ? = inconclusive; . = not tested or not shown; [ ] = remark or other dose.
no.	molecule	D2 ag	PINK1 modulator	TRPV1 PAM	CtBP-E1A inh
1	CC(=O)N=c1sccn1CC(O)c1ccc(Br)cc1 (stereo not given)	1.4	2.5%	3.8	11.9
2	Cc1ccc(S(=O)(=O)N(CC(=O)Nc2cccc(C(F)(F)F)c2)C(=O)N2CCN(C)CC2)cc1	-7.2	-1.4%	2.2	7.2
3	O=C(c1ccccc1)C(C(=O)N1CCc2ccccc2C1)n1ccccc1=O (stereo not given)	-5.1	0.6%	-1.2	8.2
4	O=C(NCCCCc1ccccc1)c1cccc([N+](=O)[O-])c1	-1.3	0.4%	-10.5	-6.3
5	COCCNc1nc2cc(-c3ccc(C)cc3)sc2c(=O)n1C	-2.5	3.0%	.	1.7
6	O=C(O)C(c1ccccc1)N1C(=O)/C(=C\c2ccc(-c3ccccc3Cl)o2)SC1=S (stereo not given)	-3.9	-1.6%	-11.0	-6.2
7	Cc1ccnc(N2C(=O)c3ccccc3C2Nc2ccccc2Cl)c1 (stereo not given)	-4.7	-0.2%	-3.2	-5.2
8	O=C(N/N=C/C=C\c1ccccc1[N+](=O)[O-])c1cc(-c2ccccc2)nc2ccccc12	-0.2	0.0%	-1.9	7.0

no.	D2 PAM	Six1-Eya2 inh	Sfp inh
1	-2.3	0.8	-4.2%
2	-6.6	2.9	.
3	-17.6	-0.2	20.9%
4	-15.4	5.5	-1.0%
5	-2.8	-2.1	.
6	-3.7	-3.6	50.1µM*
7	-5.4	-0.5	10.2%
8	7.8	-6.5	-1.9%

# The listing continues:
no.	molecule	D2 ag	PINK1 modulator	TRPV1 PAM	CtBP-E1A inh
9	CCOC(=O)N1CCN(C(=O)c2ccccc2Oc2ccccc2)CC1	-0.5	-1.3%	-4.5	3.6
10	Nc1cc(Cl)c(N)cc1Cl	0.4	-20.2%[38.3 µM]	14.5	-9.5
11	O=C(Cn1cnc2c(nnn2Cc2ccc(F)cc2)c1=O)NCC1CCCO1 (stereo not given)	-2.1	7.1%[38.3 µM]	-6.7	-8.3
12	CN(C)N=Nc1ccc(S(=O)(=O)/N=C(\O)c2ccccc2)cc1	-2.3	1.4%	-0.6	.
13	CCOc1ccccc1NC(=O)N1CCCC1C(=O)NCc1cccs1 (stereo not given)	4.8	5.1%	-3.8	2.4
14	O=C(CN(C(=O)c1csnn1)c1ccc(Br)cc1)NC1CCCC1	-7.1	0.4%	1.7	0.0
15	CC1=C([N+](=O)[O-])C(c2ccc(Cl)cc2)NC(=O)N1C (stereo not given)	2.3	-0.1%	0.7	6.0
16	CCC(=O)Nc1cc(Cl)ccc1N1CCN(C(=O)CC)CC1	-3.2	-2.4%	27.6	11.8

no.	D2 PAM	Six1-Eya2 inh	Sfp inh
9	-22.6	-1.1	20.3%
10	-1.0	-5.0	-5.5%
11	-1.7	1.4	22.5%
12	-18.6	-3.3	22.0%
13	-1.2	9.5	13.1%
14	-8.9	14.1	27.4%
15	-0.6	1.2	8.5%
16	25.7	-0.8	-13.5%

# Some of these compounds in order of the PINK1 modulator value, low to high.
no.	SMILES	PINK1 modulator
6	O=C(O)C(c1ccccc1)N1C(=O)/C(=C\c2ccc(-c3ccccc3Cl)o2)SC1=S (stereo not given)	-1.6%
8	O=C(N/N=C/C=C\c1ccccc1[N+](=O)[O-])c1cc(-c2ccccc2)nc2ccccc12	0.0%
1	CC(=O)N=c1sccn1CC(O)c1ccc(Br)cc1 (stereo not given)	2.5%

# (cont.)
no.	molecule	D2 ag	PINK1 modulator	TRPV1 PAM	CtBP-E1A inh
17	CC1Cn2c(nnc2-c2cccs2)S1 (stereo not given)	2.1	-3.6%[38.3 µM]	.	6.5
18	O=C(COC(=O)/C=C/c1ccccc1[N+](=O)[O-])Nc1ccc2[nH]c(=O)[nH]c2c1	1.8	-2.0%	.	-11.5
19	COc1ccc(C(C)=O)cc1CSc1nnc(C)n1-c1ccccc1	-8.9	1.4%	3.3	-3.5
20	NC(=O)C1CCN(C(=O)COc2ccc(S(=O)(=O)NC3CCCC3)cc2)CC1	-2.6	-2.4%	?	5.7
21	COc1cc(N)ccc1NC(=O)c1cccs1	8.7	-1.3%	-18.0	-9.6
22	CCCCNC(=O)Nc1nnc(SCC(=O)OCC)s1	-0.6	1.2%	3.7	.
23	COC(=O)/C=C1\SC(=Nc2ccc(Cl)c(Cl)c2)NC1=O	6.1	4.1%	14.9	.
24	COc1cc(SC)ccc1C(=O)Nc1ccc(Br)cn1	-4.5	0.8%	28.9	.

no.	D2 PAM	Six1-Eya2 inh	Sfp inh
17	-0.2	1.2	.
18	2.6	-10.7	.
19	-10.9	-3.1	29.9%
20	-4.3	1.5	8.1%
21	78.8*	-12.7	-15.0%
22	-6.9	-2.0	-3.4%
23	-3.0	4.4	13.1%
24	-12.7	3.2	-6.4%

# Entries listed so far that have fluorine, in the order listed:
no.	molecule	D2 ag	PINK1 modulator	TRPV1 PAM	CtBP-E1A inh
2	Cc1ccc(S(=O)(=O)N(CC(=O)Nc2cccc(C(F)(F)F)c2)C(=O)N2CCN(C)CC2)cc1	-7.2	-1.4%	2.2	7.2
11	O=C(Cn1cnc2c(nnn2Cc2ccc(F)cc2)c1=O)NCC1CCCO1 (stereo not given)	-2.1	7.1%[38.3 µM]	-6.7	-8.3

no.	D2 PAM	Six1-Eya2 inh	Sfp inh
2	-6.6	2.9	.
11	-1.7	1.4	22.5%

# The listing continues:
no.	molecule	D2 ag	PINK1 modulator	TRPV1 PAM	CtBP-E1A inh
25	CC(C)CCN1CC(=O)N2Cc3[nH]c4ccccc4c3C[C@H]2C1=O	0.7	0.3%	0.6	1.8
26	CSc1nsc(SC)c1NC(=O)N1CCCCC1	-1.1	6.8%	10.4	-1.0
27	CCCCCn1c(=O)[nH]c2cc(C(=O)N3CCN(c4ccc(C(C)=O)cc4)CC3)ccc2c1=O	-3.2	8.1%	3.7	-10.3
28	Cc1nnn(-c2nonc2N)c1C(=O)N/N=C/c1ccccc1O	-1.6	2.9%	7.2	-13.6
29	C[C@@H](NC(=O)c1[nH]cnc1C(=O)Nc1ccon1)c1ccccc1	-1.4	5.0%	-20.0	.
30	O=C(CCn1cnc(-c2ccccc2)c1-c1ccccc1)N/N=C/c1ccc(O)cc1	-4.6	6.6%	?	-17.2
31	CC1(C2CC2)NC(=O)N(CC(=O)Nc2ccccc2F)C1=O (stereo not given)	-6.0	5.9%	1.7	-11.3
32	C#CCOCCOCCOCCNc1nc(N2CCN(C(=O)CCCCCCCCCCNC(=O)[C@@H](CCC(=O)O)n3cc(CCCCCN)nn3)CC2)nc(N2CCN(C(=O)CCCCCCCCCCNC(=O)[C@H](CCCCN)n3cc(C[C@@H](C)CC)nn3)CC2)n1	0.7	-1.4%	5.5	-7.4
33	Cc1ccc2nc3c(nc2c1)-c1ccccc1C3=O	-4.3	-8.3%[38.3 µM]	1.1	-10.7
34	CC(C)Nc1nc(NC(C)C)nc(C(N)=O)n1	1.7	-2.4%[38.3 µM]	-8.2	-1.9
35	CC(=O)NC(NC(=S)Nc1ccc(N=Nc2ccccc2C)cc1C)C(Cl)(Cl)Cl (stereo not given)	-1.7	4.2%	1.2	-15.8

no.	D2 PAM	Six1-Eya2 inh	Sfp inh
25	2.7	-1.6	11.0%
26	-20.7	7.3	5.6%
27	4.2	-8.1	9.0%
28	21.1	-10.7	-8.3%
29	-11.0	?	.
30	-0.6	-10.8	-12.4%
31	-12.9	4.4	.
32	1.0	-6.0	.
33	-6.9	-16.1	-7.8%
34	0.6	-1.2	8.0%
35	-14.6	-9.6	-4.9%

# 4 compounds drawn at random from those above:
no.	molecule	D2 ag	PINK1 modulator	TRPV1 PAM	CtBP-E1A inh
14	O=C(CN(C(=O)c1csnn1)c1ccc(Br)cc1)NC1CCCC1	-7.1	0.4%	1.7	0.0
21	COc1cc(N)ccc1NC(=O)c1cccs1	8.7	-1.3%	-18.0	-9.6
35	CC(=O)NC(NC(=S)Nc1ccc(N=Nc2ccccc2C)cc1C)C(Cl)(Cl)Cl (stereo not given)	-1.7	4.2%	1.2	-15.8
5	COCCNc1nc2cc(-c3ccc(C)cc3)sc2c(=O)n1C	-2.5	3.0%	.	1.7

no.	D2 PAM	Six1-Eya2 inh	Sfp inh
14	-8.9	14.1	27.4%
21	78.8*	-12.7	-15.0%
35	-14.6	-9.6	-4.9%
5	-2.8	-2.1	.

# Rows are unselected (roughly 3.7% active in at least one column).
